Vaccinia stage: blocks a specific stage of Vaccinia orthopoxvirus infection; Vaccinia-infected cells, mCherry/Venus stage reporter fluorescence; stronger effect = lower value; some inactives read as strong as hits; activity change (mCherry), % (no concentration beside the values); 0.01% of 89,000 active; AID 1053133;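 active means mCherry past -33% and 40 or more points under the early reporter, replicates agreeing; inconclusive means past -33% without that gap or agreement; tested in A549 cells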;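 further: scaled between vehicle wells and reference inhibitor wells; 23 nL library stock went into each well; one replicate is shown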
Vaccinia stage Venus: also measured in Vaccinia stage; calls as there; activity change (Venus), %; measured here: Venus reporter, other viral stage;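 negative = less Venus signal; first of two replicates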
* = called active by the depositor; u = inconclusive; x = no result given.

Compound	Vaccinia stage	Vaccinia stage Venus
C[C@@H]1CN([C@@H](C)CO)S(=O)(=O)c2ccc(C#Cc3ccccc3F)cc2O[C@H]1CN(C)C(=O)c1ccc2c(c1)OCO2	u	x
CN(C)CC(=O)Nc1ccc2c(c1)[C@@H]1C[C@H](CC(=O)NCCN3CCCCC3)O[C@H](CO)[C@@H]1O2	0	6
COCCN(C[C@@H]1N[C@@H](CO)[C@H]1c1ccc(-c2ccc(F)cc2)cc1)C(C)=O	-20	-16
CCCNC(=O)[C@@H]1[C@@H](CO)[C@@H]2Cn3c(ccc(-c4ccccc4OC)c3=O)[C@H]1N2C(=O)NCCC	22	7
C[C@H](CO)N1C[C@H](C)[C@@H](CN(C)S(=O)(=O)c2ccc(Cl)cc2)Oc2c(NS(=O)(=O)c3cccs3)cccc2C1=O	10	13
COc1ccc(NC(=O)Nc2cccc3c2O[C@H](CN(C)C(=O)Nc2ccc(OC)cc2)[C@@H](C)CN([C@@H](C)CO)C3=O)cc1	20	11
CNC[C@H]1Oc2c(cccc2N(C)C)C(=O)N([C@H](C)CO)C[C@@H]1C	6	0
COc1ccc(NC(=O)N(C)C[C@H]2OCCCC[C@H](C)Oc3ccc(NS(=O)(=O)c4cn(C)cn4)cc3C(=O)N([C@@H](C)CO)C[C@H]2C)cc1	19	9
CCC(=O)N1[C@@H]2c3cccc(=O)n3C[C@H]1[C@H](CO)[C@H]2C(=O)NC1CCCCC1	28	20
COc1cccc(S(=O)(=O)N2CCCCN3[C@H](C2)[C@H](c2ccc(-c4cccnc4)cc2)[C@@H]3CO)c1	-29	-35
CCCN(C)C[C@H]1OCCCC[C@H](C)Oc2ccc(NS(=O)(=O)c3ccc(F)cc3)cc2C(=O)N([C@@H](C)CO)C[C@@H]1C	-21	-13
CN1C(=O)c2cc(NC(=O)c3ccc(F)cc3)ccc2OC[C@@H]2O[C@H](CC(=O)NC3CCC3)CC[C@@H]21	-22	-11
C[C@H](CO)N1C[C@H](C)[C@H](CN(C)Cc2ccc(C(F)(F)F)cc2)OCCCC[C@H](C)Oc2ccc(NC(=O)CCCN(C)C)cc2C1=O	u	x
C[C@@H]1CCCCO[C@@H](CN(C)S(=O)(=O)c2cn(C)cn2)[C@H](C)CN([C@H](C)CO)C(=O)c2cc(NS(=O)(=O)c3ccc(Cl)cc3)ccc2O1	13	10
CCN1[C@H](C(=O)NCCCN(C)C)[C@@H](CO)[C@@H]2Cn3c(ccc(-c4ccccc4OC)c3=O)[C@@H]21	18	4
CNC[C@@H]1Oc2ccc(NC(=O)Nc3ccc4c(c3)OCO4)cc2CC(=O)N([C@H](C)CO)C[C@@H]1C	13	2
COc1ccc(C#Cc2ccc([C@H]3[C@H]4CN(C(=O)c5ccncc5)CC(=O)N4[C@H]3CO)cc2)cc1	u	x
CN(C)C(=O)c1cccc(-c2ccccc2[C@H]2[C@@H](C#N)N(C(=O)C3CCCC3)[C@H]2CO)c1	1	0
COC(=O)C[C@H]1CC[C@@H]2[C@H](COC[C@@H](O)CN2S(=O)(=O)c2cn(C)cn2)O1	11	10
CCS(=O)(=O)N1CCC2(CC1)CN(S(=O)(=O)c1ccc(C)cc1)[C@@H](CO)c1[nH]c3cc(OC)ccc3c12	-23	-28
C[C@@H]1CN([C@H](C)CO)C(=O)c2cc(-c3cccc(C#N)c3)cnc2O[C@@H]1CN(C)C(=O)C1CCCCC1	10	11
CC(=O)N(C)C[C@H]1Oc2cc(-c3cncnc3)ccc2S(=O)(=O)N([C@H](C)CO)C[C@H]1C	6	5
C[C@@H]1CN([C@H](C)CO)S(=O)(=O)c2ccc(-c3ccc(F)cc3)cc2O[C@@H]1CN(C)C(=O)c1ccccc1F	-30	-17
C[C@@H]1CN([C@H](C)CO)S(=O)(=O)c2ccc(/C=C/c3ccccc3)cc2O[C@H]1CN(C)Cc1cncnc1	u	x
C[C@@H]1CN([C@@H](C)CO)C(=O)c2cccc(NC(=O)c3nc4ccccc4s3)c2O[C@@H]1CN(C)Cc1ccc(C(=O)O)cc1	10	2
CO[C@H](CN(C)S(=O)(=O)c1ccc(C)cc1)[C@H](C)CN(C(=O)Nc1ccccc1F)[C@@H](C)CO	14	12
COc1ccc(S(=O)(=O)N(C)C[C@H]2Oc3c(NC(=O)c4cnccn4)cccc3C(=O)N([C@@H](C)CO)C[C@H]2C)cc1	8	4
Cc1noc(C)c1S(=O)(=O)Nc1ccc2c(c1)C(=O)N([C@H](C)CO)C[C@H](C)[C@@H](CN(C)Cc1ccc3c(c1)OCO3)OCCCC[C@@H](C)O2	-16	-7
COC(=O)C[C@H]1CC[C@H](NS(=O)(=O)c2ccc(OC)cc2)[C@H](CO)O1	2	1
C[C@H]1CN([C@@H](C)CO)C(=O)c2cccc(NC(=O)c3ccncc3)c2O[C@H]1CN(C)S(=O)(=O)c1ccc(F)cc1	11	6
CN(C)CC(=O)N1CCCCN2[C@H](CO)[C@@H](c3ccc(-c4cccnc4)cc3)[C@H]2C1	15	6
O=C(Cc1ccccn1)N[C@H]1CC[C@@H](CCn2cc(-c3ccccc3)nn2)O[C@H]1CO	6	11
CCCN1[C@@H]2c3cccc(=O)n3C[C@H]1[C@H](CO)[C@H]2C(=O)N[C@@H](C)c1ccccc1	9	9
COc1ccc(CN(C)C[C@H]2Oc3ccc(NS(=O)(=O)c4c(C)noc4C)cc3CC(=O)N([C@@H](C)CO)C[C@@H]2C)cc1	-6	-7
CC(C)C#Cc1ccc([C@@H]2[C@H](CO)N3CCCCN(S(=O)(=O)Cc4ccccc4)C[C@@H]23)cc1	u	x
C[C@@H](NC(=O)[C@@H]1[C@@H](CO)[C@@H]2Cn3c(ccc(-c4cccnc4)c3=O)[C@@H]2N1C)c1ccccc1	1	-4
C[C@@H]1CN([C@@H](C)CO)C(=O)c2cc(C#Cc3cccnc3)cnc2O[C@@H]1CN(C)Cc1ccccc1	-8	1
CO[C@H]1CN(C)C(=O)c2ccc(NC(C)=O)cc2OC[C@H](C)N(Cc2ccccc2F)C[C@@H]1C	-15	-1
C[C@H](CO)N1C[C@H](C)[C@H](CN(C)S(=O)(=O)c2cn(C)cn2)Oc2ccc(NS(=O)(=O)c3ccc(Cl)cc3)cc2CC1=O	5	3
COc1ccc(NC(=O)N(C)C[C@@H]2OCCCC[C@@H](C)Oc3ccc(NC(=O)CCC(F)(F)F)cc3C(=O)N([C@H](C)CO)C[C@@H]2C)cc1	13	6
O=C(C1CC1)N1[C@H](CO)[C@@H]2c3ccccc3N(S(=O)(=O)c3ccc(F)cc3)C[C@@H]21	1	5
COc1cccc(C#Cc2ccc([C@H]3[C@H](C#N)N(C(=O)C4CCC4)[C@H]3CO)cc2)c1	u	x
C[C@H]1CN([C@@H](C)CO)C(=O)CCCn2nncc2CO[C@@H]1CN(C)C(=O)Nc1ccc(N2CCN(C)CC2)cc1	3	3
CCCNC(=O)N1C[C@@H](O)COC[C@H]2O[C@@H](CC(=O)NCc3ccc(Cl)c(Cl)c3)CC[C@@H]21	-11	-8
Cc1ccc(-c2ccc3c(c2)O[C@H](CN(C)Cc2ccc(F)cc2)[C@H](C)CN([C@H](C)CO)S3(=O)=O)cc1	u	x
C[C@@H]1CN([C@H](C)CO)C(=O)c2cc(NS(=O)(=O)c3ccccc3)ccc2O[C@H]1CN(C)Cc1ccc(C(F)(F)F)cc1	-3	3
CO[C@H]1CN(C)C(=O)c2ccc(NC(=O)Nc3ccccc3)cc2OC[C@H](C)N(C(=O)CC2CC2)C[C@@H]1C	0	9
CC=Cc1ccc2n(c1=O)C[C@H]1[C@H](CO)[C@@H](C(=O)N3CCCCC3)[C@@H]2N1CC1CCCC1 (mixture of isomers)	5	4
C[C@@H](NC(=O)C[C@@H]1CC[C@H](NC(=O)C2CCC2)[C@H](CO)O1)c1ccccc1	-5	0
C[C@H](CO)N1C[C@H](C)[C@H](CN(C)S(=O)(=O)c2ccccc2)OCCCC[C@H](C)Oc2ccc(NC(=O)Cc3ccccc3)cc2C1=O	-26	-23
C[C@@H]1CN([C@@H](C)CO)C(=O)Cc2cc(NS(=O)(=O)c3ccccc3)ccc2O[C@H]1CN(C)Cc1ccc(C(=O)O)cc1	6	14
COc1ccccc1-c1cnc2c(c1)C(=O)N([C@@H](C)CO)C[C@@H](C)[C@H](CN(C)Cc1ccccc1)O2	-29	-11
O=C(N[C@@H]1C=C[C@@H](CC(=O)N2CCOCC2)O[C@@H]1CO)c1ccccn1	-2	-5
COc1cccc(NC(=O)N(C)C[C@H]2Oc3ncc(C#Cc4ccncc4)cc3C(=O)N([C@H](C)CO)C[C@H]2C)c1	7	14
C[C@H](CO)N1C[C@H](C)[C@H](CN(C)Cc2ccc(C(F)(F)F)cc2)Oc2ccc(NS(C)(=O)=O)cc2CC1=O	-2	-10
C[C@@H]1CCCCO[C@@H](CN(C)C(=O)CCC(F)(F)F)[C@H](C)CN([C@@H](C)CO)C(=O)c2cc(NS(=O)(=O)c3ccc(F)cc3)ccc2O1	-13	-5

Remaining list, next part.
Compound	Vaccinia stage	Vaccinia stage Venus
Cn1cnc(S(=O)(=O)N2CC[C@@H]3[C@H]2c2cc(-c4ccc(F)cc4)ccc2N[C@@H]3CO)c1	24	3
CC(C)CC#Cc1cnc2c(c1)C(=O)N([C@H](C)CO)C[C@H](C)[C@@H](CN(C)C(=O)NC1CCCC1)O2	-1	-4
COc1ccc(S(=O)(=O)N[C@H]2CC[C@@H](CCNC(=O)Cc3ccccn3)O[C@@H]2CO)cc1	-3	-4
CO[C@@H]1CN(C)C(=O)c2cc(NC(C)=O)ccc2OC[C@H](C)N(C(=O)c2ccccn2)C[C@@H]1C	6	10
C[C@@H]1CN([C@@H](C)CO)C(=O)c2cc(C#CCN(C)C)cnc2O[C@H]1CN(C)Cc1ccc(C(=O)O)cc1	21	26
C[C@H](CO)N1C[C@H](C)[C@@H](CN(C)CC2CC2)OCCCC[C@H](C)Oc2ccc(NC(=O)Nc3ccc(F)cc3)cc2C1=O	6	12
O=C(C[C@H]1CC[C@H]2[C@@H](COC[C@H](O)CN2Cc2cccc(F)c2)O1)NCc1cccc(F)c1	-10	-13
N#C[C@H]1[C@@H](c2ccc(-c3cccnc3)cc2)[C@@H](CO)N1C(=O)C1CC1	9	1

Whole records, looked up by structure. Screens in order: Vaccinia stage	Vaccinia stage Venus
COc1ccc(NC(=O)N(C)C[C@H]2OCCCC[C@H](C)Oc3ccc(NS(=O)(=O)c4cn(C)cn4)cc3C(=O)N([C@@H](C)CO)C[C@H]2C)cc1 is listed with 19	9
CC(=O)N(C)C[C@H]1Oc2cc(-c3cncnc3)ccc2S(=O)(=O)N([C@H](C)CO)C[C@H]1C is listed with 6	5

Continuation:
Compound	Vaccinia stage	Vaccinia stage Venus
C[C@@H]1CN([C@H](C)CO)C(=O)c2cc(NC(=O)Nc3ccc(F)cc3)ccc2O[C@@H](C)CCCCO[C@@H]1CN(C)Cc1ccccc1	u	x
O=C(c1ccc2c(c1)OCO2)N1CC[C@H]2[C@H](CO)Nc3ccc(-c4ccc(F)cc4)cc3[C@H]21	-12	-15
C[C@H]1CN([C@@H](C)CO)C(=O)c2cc(NC(=O)CCCCCC(=O)Nc3ccccc3N)ccc2O[C@@H]1CN(C)S(C)(=O)=O	23	7
CO[C@@H]1CN(C)C(=O)c2ccc(NS(C)(=O)=O)cc2OC[C@H](C)N(Cc2cncnc2)C[C@@H]1C	12	5
COc1ccc(CN(C)C[C@H]2Oc3ccc(NS(=O)(=O)c4ccccc4)cc3C(=O)N([C@H](C)CO)C[C@H]2C)cc1	16	11
O=C(Nc1ccc2c(c1)[C@H]1C[C@H](CC(=O)N3CCOCC3)O[C@@H](CO)[C@H]1O2)NC1CCCCC1	6	4
CCCNC(=O)N1CC2(C1)[C@@H](c1ccccc1)[C@H](CO)N2C(=O)C1CC1	14	10
Cc1ccc(-c2ccc3c(c2)O[C@H](CN(C)CC2CC2)[C@H](C)CN([C@H](C)CO)S3(=O)=O)cc1	-28	-27
CCS(=O)(=O)N[C@H]1CC[C@@H](CC(=O)NCc2ccccn2)O[C@H]1CO	8	17
O=C(c1ccccc1)N1CC(=O)N2[C@@H](CO)[C@H](c3ccc(-c4ccccc4)cc3)[C@@H]2C1	-2	1
C[C@@H]1CN([C@@H](C)CO)C(=O)c2cc(NS(=O)(=O)c3ccc(Cl)cc3)ccc2O[C@H]1CN(C)C(=O)Nc1cccc2ccccc12	26	17

Laid out differently: results already given
Second line of a record – Vaccinia stage, Vaccinia stage Venus
> COc1ccc(CN(C)C[C@H]2Oc3ccc(NS(=O)(=O)c4ccccc4)cc3C(=O)N([C@H](C)CO)C[C@H]2C)cc1
    16, 11
> CCCNC(=O)N1CC2(C1)[C@@H](c1ccccc1)[C@H](CO)N2C(=O)C1CC1
    14, 10
> C[C@H]1CN([C@@H](C)CO)C(=O)c2cc(NC(=O)CCCCCC(=O)Nc3ccccc3N)ccc2O[C@@H]1CN(C)S(C)(=O)=O
    23, 7
> C[C@@H]1CN([C@@H](C)CO)C(=O)c2cc(NS(=O)(=O)c3ccc(Cl)cc3)ccc2O[C@H]1CN(C)C(=O)Nc1cccc2ccccc12
    26, 17

These rows are one share of the data; the hit share may differ from the screen's.
